Screens from PubChem.
GIV Gai3 FP: GIV-Galpha-i interaction inhibition; P08753; Galpha-i3/FITC-GIV peptide fluorescence polarization, 90 min; stronger effect = lower value; scaled: aluminum fluoride 0%, vehicle 100%; percent of control (FP), % (test concentration not listed); 210,000 tested, 0.42% active; AID 1224905;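 active = replicate mean at 85% of control or lower, very high polarization wells dropped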;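 also: wells of about 15 µL received 100 nL stock; the first replicate is given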
Target sequence (P08753 whole entry, looked up): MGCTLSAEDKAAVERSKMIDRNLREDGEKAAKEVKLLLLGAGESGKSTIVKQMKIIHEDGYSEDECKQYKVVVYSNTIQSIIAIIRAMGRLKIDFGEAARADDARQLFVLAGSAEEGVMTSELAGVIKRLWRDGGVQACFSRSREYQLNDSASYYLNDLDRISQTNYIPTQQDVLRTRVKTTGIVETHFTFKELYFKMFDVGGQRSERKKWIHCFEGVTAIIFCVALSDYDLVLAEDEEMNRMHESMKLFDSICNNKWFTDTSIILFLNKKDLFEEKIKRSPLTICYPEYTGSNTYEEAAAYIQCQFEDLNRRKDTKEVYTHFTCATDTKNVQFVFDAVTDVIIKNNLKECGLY
Numbers without * were called inactive. These rows are one share of the data; count on the stated rates, not on these rows.

SMILES	GIV Gai3 FP
COc1ccc(C2=N/C(=C\c3coc4ccccc4c3=O)C(=O)O2)c(Br)c1	99
CCOC(=O)c1[nH]c(C)c(CCC(=O)N2CCCC(C(=O)NC3CCCC3)C2)c1C (stereo not drawn)	101
CC(C)OC(=O)Cn1nc2ccc(S(=O)(=O)N3CCSCC3)cn2c1=O	98
CCCC(=O)N(c1ccc2oc(C)c(C(=O)OC)c2c1)S(=O)(=O)c1ccc2ccccc2c1	109
O=C(NCc1nc2cccnc2n1Cc1ccccc1)C1CCC1	108
Cc1c(Cl)cccc1NC(=O)/C(=C/c1ccc2c(c1)OCO2)NC(=O)c1ccccc1Br	127
COc1ccc2nc(SCC(=O)Nc3ccc(C(C)C)cc3)n(S(=O)(=O)c3ccc(C)cc3)c2c1	106
O=C(NC1CCCC1)c1cn2c(n1)COCC2	106
CCOc1ccc(NC(=O)Cn2nc3c4sccc4ncn3c2=O)cc1	102
COC(=O)C1C(=O)NC(SCC(=O)OCc2ccccc2)=C(C#N)C1c1ccccc1[N+](=O)[O-] (stereo not drawn)	106
O=C(NC1CCCCC1)c1cccnc1SCc1cccc(Br)c1	110
CCN(CC)c1nc2ccsc2c(=O)n1CC(=O)NCCC(C)C	98
CNC(=O)N(C)CCc1noc(C(=O)NCc2ccc(Cl)cc2)n1	101
O=C(CSc1nc2ccccc2c(=O)n1Cc1ccc2c(c1)OCO2)NCCc1ccccc1	112
COc1ccc(NS(=O)(=O)c2cc(-c3nnc(C(=O)N4CCCC4)o3)sc2C)cc1OC	98
O=C(Nc1ccc(Br)cc1F)c1cc(S(=O)(=O)N2CCN(c3ccccc3F)CC2)ccc1F	107
CC1(C)CN(CC(=O)N2CCCC2)c2ccc(S(=O)(=O)NCCc3cccs3)cc21	114
Cn1c(N2CCN(C(=O)CC3CCCC3)CC2)cc(=O)n(C)c1=O	107
O=C(NC1CCCC1)c1ccc2ccnc(N3CCN(c4ccc(Cl)cc4)CC3)c2c1	104
O=C(NC1CCCCC1)N1CCCN(C2CCN(Cc3ccc(F)cc3)C2=O)CC1 (stereo not drawn)	99
CCOC(=O)c1cnn(-c2ccc(C(=O)N3CCC(C(=O)OCC)CC3)cc2)c1N	107
COc1ccc(-c2cnn3c(C)cc(C)nc23)cc1S(=O)(=O)NCc1ccc2c(c1)OCO2	102
CCC(=O)N1CCc2c(c(C(=O)N3CCC(C(=O)NCc4ccc(F)cc4)CC3)nn2C)C1	102
Nc1nnc(SCC(=O)n2c3c(c4ccccc42)CCCC3)s1	105
Cc1noc(C)c1CC(=O)N1CCC(Oc2cc(N(C)C)ncn2)C1 (stereo not drawn)	100
CCc1ccc(S(=O)(=O)N(C(=O)c2ccccc2Cl)c2ccc3oc(C)c(C(C)=O)c3c2)cc1	111
CCOc1ccc(C2C(N3C(=O)c4ccccc4C3=O)C(=O)N2c2cc(Cl)cc(Cl)c2)cc1 (stereo not drawn)	113
CCSc1ccccc1C(=O)Nc1nc2ccc(S(N)(=O)=O)cc2s1	104
CCn1nccc1-c1csc(S(=O)(=O)N2CCCC2)c1	105
C#CC(C)OC1(c2ccccc2)OC(=O)c2ccccc21 (stereo not drawn)	106
Cc1ccc(C)c(N2CCN(C(=O)CCc3c(C)n(C)c4cc(-c5ccccc5C)nn4c3=O)CC2)c1	113
CCOc1ccc(N2C(=O)C(N3C(=O)c4ccccc4C3=O)C2c2cc(OC)c(OC)c(OC)c2)cc1 (stereo not drawn)	116
CCOC(=O)c1sc2nc(CC(=O)OC)nc(NCCCOC)c2c1C	101
CN1c2ccccc2C(C)(C)C12C=Cc1cc(C(=O)c3ccccc3)ccc1O2 (stereo not drawn)	103
Cc1nnc(NC(=O)c2ccc(=O)n(Cc3ccc(Cl)cc3)c2)s1	133
CC1CCN(CC(=O)N2c3ccccc3Sc3ccccc32)CC1	106
Cc1cc(=O)oc2c1c(C)nn2-c1ccc(Cl)cc1	112
COC(=O)c1c(C)oc2ccc(N(C(=O)c3ccncc3)S(=O)(=O)c3ccc4ccccc4c3)cc12	119
O=C1c2cc(S(=O)(=O)N3CCCCCC3)cc([N+](=O)[O-])c2-c2c1cc(S(=O)(=O)N1CCCCCC1)cc2[N+](=O)[O-]	114
CCCNC(=O)N1CCC2(C1)C(=O)Nc1ccccc12 (stereo not drawn)	103
CCNc1nc(C(N)=O)c(NC(=O)c2cc(-c3ccc(F)cc3)n(C)c2C)s1	108
COc1cc(C=Nc2c(C)n(C)n(-c3ccccc3)c2=O)cc(OC)c1OC	109
CN(CCc1noc(-c2cc3ccccc3[nH]2)n1)C(=O)c1ccc(N(C)C)cc1	97
O=C(CN1c2ccccc2NC2=C(C(=O)CCC2)C1c1ccco1)NC1CCCCC1 (stereo not drawn)	103
CCOC(=O)C1=C(C)N=c2s/c(=C/c3c(OC)cc(OC)cc3OC)c(=O)n2C1c1ccccc1OC (stereo not drawn)	104
O=S(=O)(c1cccc(F)c1)N1CCC(c2noc(-c3cccc(F)c3)n2)CC1	104
O=c1/c(=C\c2cccc([N+](=O)[O-])c2)sc2nc(-c3ccccc3)c(-c3ccccc3)n12	110
CCOc1ccc(-n2c(=S)[nH]c3c(sc(=S)n3-c3ccc(C)c(C)c3)c2=O)cc1	106
CC1CCN(CCCNC(=O)CCC(=O)Nc2nc(-c3cc4ccccc4oc3=O)cs2)CC1	117
CC1=C(C(=O)OC2CCCCC2)C(c2ccc(Cl)cc2)C2=C(CCCC2=O)N1 (stereo not drawn)	107
CN(CCN1CCOCC1)C1CCN(S(=O)(=O)c2ccc3[nH]c(=O)ccc3c2)CC1	104
COc1ccc(NC(=O)c2ccc(N3CC4CC(C3)c3cccc(=O)n3C4)c(NC(=O)c3cccs3)c2)cc1OC (stereo not drawn)	111
CCc1ccc(C(=O)N2CCN(c3ccnc(-c4ccc(C)cc4)n3)CC2)cc1	111
CCCc1cc(C2CCCN2S(=O)(=O)c2ccc(Cl)cc2)no1 (stereo not drawn)	96
O=C1Nc2ccccc2OCC1CC(=O)N1CCc2ccccc21 (stereo not drawn)	105
O=C(CCc1nc(-c2ccc(N3CCCC3)cc2)no1)Nc1ccc2c(c1)OCCO2	100
CC(C)Oc1ccccc1-c1nn2c(=O)c(NC(=O)c3ccc(C(C)(C)C)cc3)cnc2o1	106
Cc1cc(C)cc(NC(=O)CC2CCN(C(=O)c3cn(-c4ccccc4)nc3-c3ccccc3)CC2)c1	103
CN(CC1CCCO1)S(=O)(=O)c1ccc(C(=O)Nc2nc3ccc(F)cc3s2)cc1 (stereo not drawn)	96
CC1=NN(C(=O)C(F)(F)F)C(O)(c2cccc(Br)c2)C1 (stereo not drawn)	114
(listing goes on)
SMILES	GIV Gai3 FP
O=C(CN1C(=O)C2C3C=CC(C3)C2C1=O)Nc1cc(C(F)(F)F)cc(C(F)(F)F)c1 (stereo not drawn)	97
CC(C)(C)C(C(Oc1ccc(Cl)cc1)n1cncn1)n1nnnc1C(c1ccc(Cl)cc1Cl)N1CCCCC1 (stereo not drawn)	102
COc1ccc(N2CCN(c3nc(Nc4ccc(NC(C)=O)cc4)nc(N4CCOCC4)n3)CC2)cc1	107
CCOC(=O)CNC(=O)CCc1c(C)n(C)c2cc(-c3ccccc3C)nn2c1=O	106
CC(C)CCNC(=O)C1CCN(C(=O)c2cccc(NS(=O)(=O)c3ccc(F)cc3)c2)CC1	103
O=C(Nc1ccc(F)cc1F)N1CCN(Cc2nc3cccnc3n2-c2ccccc2)CC1	104
Cc1ccc(C)c(S(=O)(=O)Nc2ccc3oc4c(c3c2)C(=O)CC(C)(C)C4)c1	111
O=S(=O)(NC1CCCCC1)c1ccc(-c2nnc(C3CCCC3)o2)o1	101
CCc1ccc(NC(=O)Cn2cnc(SCc3ccccc3)n2)cc1	104
O=C(CCCCCN1C(=O)c2ccccc2C1=O)Nc1nc2c(ncn2C2OC(CO)C(O)C2O)c(=O)[nH]1 (stereo not drawn)	116
CC(C)ON1C(=O)CN(C(=O)c2ccccc2)C1c1ccc(Cl)cc1Cl (stereo not drawn)	116
COc1ccc(-c2[nH]ncc2CN2CCCC2c2c(C)noc2C)cc1OC (stereo not drawn)	107
O=C(CCc1nc(-c2ccccc2)no1)NCc1noc(-c2ccc(F)cc2)n1	99
Cc1nc(CNC(=O)[C@H]2CSCN2S(=O)(=O)c2ccccc2)cs1	102
CCN1CCN(CC2CCN(S(=O)(=O)Cc3ccc(Cl)cc3)CC2)CC1	108
Cc1nccn1-c1cc(N2CCCC2)nc2ccnn12	100
COc1cccc(-n2nc(C(=O)Nc3nc4ccc(OC)cc4s3)c3ccccc3c2=O)c1	108
O=C(NCc1c(-c2ccccc2)nc2n1CCS2)c1ccc(S(=O)(=O)N2CCOCC2)cc1	96
Ic1cccc(-c2nc(-c3ccccc3)[nH]c2-c2ccc(-c3nc(-c4ccccc4)[nH]c3-c3cccc(I)c3)cc2)c1	107
COc1ccc(-c2nc3ccccc3c3nnc(SCC(=O)N4CCCC4)n23)cc1	99
Cc1cc(C)cc(C(=O)N2CCN(c3nc(C)cc(N4CCN(C)CC4)n3)CC2)c1	105
CCOc1ccc(NC(=O)CSC2=C(C#N)C(c3ccccc3[N+](=O)[O-])CC(=O)N2)cc1 (stereo not drawn)	103
O=c1n(Cc2cccc(C(F)(F)F)c2)nc2c(S(=O)(=O)N3CCCCC3)cccn12	108
CCOC(=O)N1CCN(C(=O)c2sc3ncnc(N4CCN(c5ccccc5OC)CC4)c3c2C)CC1	106
CN1C(=O)c2ccccc2Sc2cc(-c3noc(Cc4ccccc4Br)n3)ccc21	94
O=C(Nc1ccc(C(=O)N2CCCC2)cc1)c1nsc2ccccc12	104
CCOc1ccc([C@@H]2[C@@H](C(=O)C34CC5CC(CC(C5)C3)C4)N3c4ccccc4C=C[C@@H]3C2(C#N)C#N)cc1	111
COc1cc(OC)cc(C(=O)OCCC2CCCCN2C2=NS(=O)(=O)c3ccccc32)c1 (stereo not drawn)	106
COc1ccc(S(=O)(=O)N2CCCC2c2cc(C(C)C)no2)cc1OC (stereo not drawn)	104
O=c1[nH]c(N2CCC3(CC2)OCCO3)nc2c(-c3ccc(F)cc3)csc12	138
COCCOC(=O)C1=C(C)NC(=O)CC1c1cccc(Cl)c1Cl (stereo not drawn)	109
Cc1nc(N2CCOCC2)c2c(C)c(C(=O)Nc3cccc(Cl)c3)sc2n1	105
Cc1c(CCNC(=O)c2ccc(F)cc2)sc2nc(-c3ccc(Cl)cc3)nn12	100
CCC(=O)Nc1cc(Cl)ccc1OCc1cc(=O)n2cc(C)sc2n1	108
C=CCN(CC=C)CC(O)Cn1c2ccccc2c2ccccc21 (stereo not drawn)	110
O=C(Nc1ccc(F)cc1)c1ccc(Oc2ccnc(-c3ccc(F)cc3)n2)cc1	102
O=S(=O)(NCc1cccs1)c1cc(-c2noc(C3CC3)n2)cs1	104
CCC(=O)NC1(c2nnnn2-c2cccc(Cl)c2)CCCCC1	108
CN(C)S(=O)(=O)NCCOc1ccc(-c2ccccc2)nn1	104
COc1ccc(NC(=O)c2c(NC(=O)c3cccc(Br)c3)sc3c2CCCCC3)cc1	109
O=C(CCc1nc(CSc2nc(-c3ccccc3)cs2)no1)Nc1nccs1	102
COc1cccc(C(=O)NCc2nnc(SCC(=O)N3CCc4ccccc43)n2-c2cccc(C(F)(F)F)c2)c1	110
Cn1nc(C(=O)N2CCCC(C(=O)NC3CC3)C2)c2c1CCN(C(=O)c1ccccc1F)C2 (stereo not drawn)	102
Cc1ccc(S(=O)(=O)N(CC(O)CN2CCCC2)c2cccc3ccccc23)cc1 (stereo not drawn)	109
Cc1cccc(Nc2nc3nonc3n3c(C)nnc23)c1C	102
CCOC(=O)c1c(NC(=O)CS(=O)(=O)c2ccc(C)cc2)sc2c1CCC2	108
C=CCn1c2nc3ccccc3nc2c2cccc(C)c21	112
Cc1cc(C)cc(Oc2c(C(F)(F)F)oc3c(CN4CCN(C)CC4)c(O)ccc3c2=O)c1	104
CCOc1ccc(CN2CCCC2c2cc(C(C)C)on2)cc1OC (stereo not drawn)	108
CC(=O)C1=NN(c2ccccc2C)C2(S1)c1ccccc1C(c1ccc(C)cc1)=NN2c1ccccc1 (stereo not drawn)	106
C=CCn1c(SCC(N)=O)nnc1-c1cc2ccccc2o1	104
O=c1n(Cc2ccccc2)nc2c(S(=O)(=O)N3CCN(c4ccc(F)cc4)CC3)cccn12	99
O=C(c1cc2c(s1)CCC(C(=O)N1CCCC1)C2)N1CCCC1 (stereo not drawn)	107
CCOC(=O)C1(C)/C(=N\Nc2ccccc2Cl)C(=O)C(=O)N1c1ccccc1 (stereo not drawn)	117
COc1cc2c(cc1OC)C(CCl)=NC(C)(C)C2	112
Cc1ccc(CNC(=O)Cn2cnc3c(sc4nc(C)cc(C)c43)c2=O)cc1	97

Compounds above that have two or more sulfur atoms, in the order listed:
SMILES	GIV Gai3 FP
CC(C)OC(=O)Cn1nc2ccc(S(=O)(=O)N3CCSCC3)cn2c1=O	98
COc1ccc2nc(SCC(=O)Nc3ccc(C(C)C)cc3)n(S(=O)(=O)c3ccc(C)cc3)c2c1	106
COc1ccc(NS(=O)(=O)c2cc(-c3nnc(C(=O)N4CCCC4)o3)sc2C)cc1OC	98
CC1(C)CN(CC(=O)N2CCCC2)c2ccc(S(=O)(=O)NCCc3cccs3)cc21	114
Nc1nnc(SCC(=O)n2c3c(c4ccccc42)CCCC3)s1	105
CCSc1ccccc1C(=O)Nc1nc2ccc(S(N)(=O)=O)cc2s1	104
CCn1nccc1-c1csc(S(=O)(=O)N2CCCC2)c1	105
O=C1c2cc(S(=O)(=O)N3CCCCCC3)cc([N+](=O)[O-])c2-c2c1cc(S(=O)(=O)N1CCCCCC1)cc2[N+](=O)[O-]	114
CCOc1ccc(-n2c(=S)[nH]c3c(sc(=S)n3-c3ccc(C)c(C)c3)c2=O)cc1	106
CN(CC1CCCO1)S(=O)(=O)c1ccc(C(=O)Nc2nc3ccc(F)cc3s2)cc1 (stereo not drawn)	96
Cc1nc(CNC(=O)[C@H]2CSCN2S(=O)(=O)c2ccccc2)cs1	102
O=C(NCc1c(-c2ccccc2)nc2n1CCS2)c1ccc(S(=O)(=O)N2CCOCC2)cc1	96
O=S(=O)(NCc1cccs1)c1cc(-c2noc(C3CC3)n2)cs1	104
O=C(CCc1nc(CSc2nc(-c3ccccc3)cs2)no1)Nc1nccs1	102
CCOC(=O)c1c(NC(=O)CS(=O)(=O)c2ccc(C)cc2)sc2c1CCC2	108
